# TRPML1 agonist: agonists of human TRPML1 channel; TRPML1-expressing cells, Ca2+ dye fluorescence, FDSS; host cell line not named in the record; reference of the full effect not given here; activation, % (concentration not given with the values); AID 624414; 410,000 compounds, 0.12% hits; Q9GZU1; in the data active = activation above about 50%; inconclusive = about 30% to 50%; inactive = below about 30%; note: 0% is about no effect; the text of the record puts the active cut at 80%
#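 TRPML1-DL cells, Tet-induced overnight (~16 h, 37 degrees C), loaded 45-90 min at room temperature with Ca8 no-wash calcium dye plus quencher. FDSS fluorescence: 10 s baseline, compound pin-transfer, 110 s agonist read, then EC80 54-4 (4uM final) and 110 s antagonist read.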
# TRPV1 PAM: human TRPV1 potentiation; TRPV1-expressing cells, Fluo-8 calcium influx, capsaicin EC20 potentiation; host cell line not named in the record; control for the full effect not named in the record; potentiation, % at 8.33 µM; 320,000 compounds, 0.02% hits; active means potentiation above 80%; inconclusive means 30% to 80%; inactive means below 30%; note: 0% is about no effect
#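 Fluo-8 calcium influx in TRPV1-expressing cells, kinetic read (ex 480/em 520 nm). Compound added and read 3 min for agonist activity, followed by capsaicin at EC20 final and 2 min further read for enhancement.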
# CtBP-E1A blk: CtBP/E1A binding inhibition; AlphaScreen GST-E1A/His-CtBP binding, 1536-well; hits give low values; control for the full effect not named in the record; activity change, % (test concentration not listed); 340,000 compounds, 0.49% hits; AID 651724; in the data active means activity change below about -65%; inconclusive means about -30% to -65%; inactive means above about -30%; note: % is set by controls: 0 for no effect and ±100 for the full control effect
#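 In 5 uL wells, 23 nL compound meets equimolar GST-E1A and His-CtBP (5X stock 125 nM each) for 2 h, 37 °C. Beads (5X, 50 ug/mL) then 1 h, 37 °C, dark.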
# Six1-Eya2 inh: blocks human Six1 binding to Eya2 | Q15475+O00167 | AlphaScreen GST-Six1/His-Eya2 binding, biochemical; hits give low values; control for the full effect not named in the record | activity change, % (no concentration beside the values) | 360,000 compounds, 0.56% hits | AID 651725; in the data active = activity change below about -65%; inconclusive = about -30% to -65%; inactive = above about -30%; note: % is set by controls: 0 for no effect and ±100 for the full control effect
# Target sequence (O00167 whole entry, looked up): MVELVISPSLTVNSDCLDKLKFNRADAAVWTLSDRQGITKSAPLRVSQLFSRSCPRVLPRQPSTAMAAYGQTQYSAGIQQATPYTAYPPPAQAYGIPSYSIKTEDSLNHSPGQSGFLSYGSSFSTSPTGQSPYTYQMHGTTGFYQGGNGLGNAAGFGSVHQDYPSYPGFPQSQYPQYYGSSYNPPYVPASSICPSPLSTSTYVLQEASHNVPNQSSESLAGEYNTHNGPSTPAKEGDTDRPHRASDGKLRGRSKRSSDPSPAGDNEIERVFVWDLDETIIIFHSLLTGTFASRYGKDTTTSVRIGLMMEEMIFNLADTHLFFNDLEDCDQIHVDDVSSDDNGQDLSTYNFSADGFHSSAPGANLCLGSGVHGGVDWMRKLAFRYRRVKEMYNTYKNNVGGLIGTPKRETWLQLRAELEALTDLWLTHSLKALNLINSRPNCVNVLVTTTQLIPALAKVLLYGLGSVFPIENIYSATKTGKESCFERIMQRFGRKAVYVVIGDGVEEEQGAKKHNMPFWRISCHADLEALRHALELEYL
# Target sequence (Q15475 whole entry, looked up): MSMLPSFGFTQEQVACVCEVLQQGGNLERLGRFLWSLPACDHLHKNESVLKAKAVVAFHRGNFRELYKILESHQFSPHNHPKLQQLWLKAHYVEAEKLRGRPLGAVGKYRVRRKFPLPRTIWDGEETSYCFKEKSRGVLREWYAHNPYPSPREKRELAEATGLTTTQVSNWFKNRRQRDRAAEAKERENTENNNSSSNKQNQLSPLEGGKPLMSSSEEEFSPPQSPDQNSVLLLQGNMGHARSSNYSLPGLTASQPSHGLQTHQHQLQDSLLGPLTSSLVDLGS
#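 Homogeneous AlphaScreen proximity assay pairing GST-Six1 with His-tagged Eya2 (added as 5X mix: 250 nM and 500 nM) in 50 mM Tris pH 8.0, 300 mM NaCl, 1 mM TCEP. Glutathione donor and nickel acceptor beads; 1 h, 37 °C, dark.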
# TRPML1 blocker: blocks the human TRPML1 channel; 390,000 compounds, 0.02% hits; AID 624415; Q9GZU1; TRPML1-inducible cells, Ca2+ dye fluorescence, FDSS; hits give low values; inhibition of EC80 agonist-evoked calcium signal; activity change, negative = inhibition, % (test concentration not listed); in the data active means activity change below about -50%; inconclusive means about -30% to -50%; inactive means above about -30%;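 note: stimulus is agonist 54-4 at its EC80 concentration; % is set by controls: 0 for no effect and ±100 for the full control effect; compound concentration not given in the record; the text of the record puts the active cut at -80%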
#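 TRPML1-DL cells, Tet-induced overnight (~16 h, 37 °C) at 1,500 cells/well, were loaded with Ca8 no-wash dye plus quencher for 45-90 min at room temperature. Compounds were pinned during FDSS kinetic reading; agonist 54-4 at EC80 (4 uM final) then added.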
# D2 potentiator: potentiates the human D2 dopamine receptor allosterically; 360,000 compounds, 0.23% hits; DiscoveRx D2 beta-arrestin cells, luminescence, 90 min; 100% = 57 uM dopamine signal; potentiation, % (no concentration beside the values); P14416; active = potentiation of 50% or more; inconclusive = 30% to 50%; inactive = 30% or less;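 note: compound concentration not given in the record; tested on top of an EC20 dose of dopamine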
#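 D2 cells co-treated with compound plus 50 nM dopamine (EC20) for 90 min at 37 deg C to detect potentiation. Beta-arrestin recruitment was read as enzyme-fragment luminescence after 1 h at ambient temperature. Full response was set by 57 uM dopamine.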
# The depositor's hits bear a star; ? = inconclusive; . = not tested or not shown. Not a hit list; overall some 0.95% were active at least once.
canonical_smiles,TRPML1 agonist,TRPV1 PAM,CtBP-E1A blk,Six1-Eya2 inh,TRPML1 blocker,D2 potentiator
Cc1ccccc1N1C(=O)C2CCCN2C1=S (stereo not given),1.0,-7,5,6,-2,1
COc1cc(SC)ccc1C(=O)N(CC(=O)Nc1ccccc1Br)Cc1ccco1,1.7,6,-4,-19,2,-22
COc1ccc2c(-c3ccccc3)cc(SC(C)C(N)=O)nc2c1 (stereo not given),2.7,-3,-23,-5,14,-9
COc1cccc(-c2cnc(C(O)c3ccc(Cl)cc3)[nH]2)c1 (stereo not given),-0.9,.,-19,-11,.,-15
COc1ccc(OC)c(NC(=O)Nc2cccc(Cn3cccn3)c2)c1,1.0,2,-9,-9,8,-23
CCN(CC)S(=O)(=O)c1cccc(C(=O)NC(Cc2c[nH]c3ccccc23)c2nnc3n2CCC3)c1 (stereo not given),0.6,20,5,-5,-4,-3
O=C(NC1CC1)c1nc2c(nnn2Cc2ccccc2Cl)c(=O)[nH]1,1.4,2,8,1,12,-1
CCC1(C)Cc2c(C#N)c(N)n(N)c(=S)c2CO1 (stereo not given),1.4,-1,-7,-3,-8,-10
COc1ccc(CCNc2oc(-c3cccc4ccccc34)nc2P(=O)(OC)OC)cc1OC,2.3,-7,6,-7,11,-1
Cn1c(SCC(=O)c2ccc3c(c2)Cc2ccccc2-3)nnc1-c1ccccc1,1.6,3,-4,5,35,-1
Cc1cc(C)n2nc(C(=O)Nc3ccc(N4CCOCC4)cc3)nc2n1,0.2,-2,1,-4,-8,7
CCCn1c(SCC(=O)Nc2ccccc2Cl)nc(O)cc1=O,3.2,-3,-24,1,5,16
O=C(NCCc1ccccc1)C1CCC(=O)N1CCc1ccccc1 (stereo not given),1.0,-11,16,31,5,-1
Cc1ccc(Nc2nc(CSc3nnc(-c4ccccc4)n3C)cs2)cc1,0.3,2,-20,-19,-9,-11
NC(=O)c1cc[n+](Cc2ccccc2Cl)cc1,0.1,10,5,0,-4,-5
Cc1c(Cl)cnc(NC(=O)COC(=O)[C@H](C)NC(=O)c2ccccc2)c1Cl,-0.7,-4,.,-10,-7,-4
COc1cccc(S(=O)(=O)N2CCN(c3ccccc3F)CC2)c1,1.2,-26,8,8,-4,-11
COc1ccccc1OCC(=O)NCCS(=O)(=O)N1CCN(c2ccccc2)CC1,-0.5,29,-18,-8,56,15
Cc1cc(=O)oc2cc(OC(C)C(=O)Nc3ccc(C(N)=O)cc3)ccc12 (stereo not given),0.5,-2,.,-7,7,-15
CCOc1cc(C2NC(=O)NC2=O)ccc1O (stereo not given),-0.3,4,-1,7,-17,-8

# Given with values under each structure: 2 of the compounds above.
# The line under a structure holds: TRPML1 agonist | TRPV1 PAM | CtBP-E1A blk | Six1-Eya2 inh | TRPML1 blocker | D2 potentiator
Cc1c(Cl)cnc(NC(=O)COC(=O)[C@H](C)NC(=O)c2ccccc2)c1Cl
→ -0.7 | -4 | . | -10 | -7 | -4
CCN(CC)S(=O)(=O)c1cccc(C(=O)NC(Cc2c[nH]c3ccccc23)c2nnc3n2CCC3)c1 (stereo not given)
→ 0.6 | 20 | 5 | -5 | -4 | -3

# (cont.)
canonical_smiles,TRPML1 agonist,TRPV1 PAM,CtBP-E1A blk,Six1-Eya2 inh,TRPML1 blocker,D2 potentiator
CCOC(=O)c1c(NC(=O)CSC(=S)N(C)C)sc(C)c1C,4.7,5,1,0,9,1
c1ccc2c(CCNc3ncnc4nc[nH]c34)cccc2c1,1.3,-9,-5,-2,46,?
CCOC(=O)c1nc(Nc2ccccc2)c2ccccc2n1,0.1,-15,-23,-16,15,-8
CCNC(=O)NC(=O)C(C)Sc1nnc(COc2ccccc2Cl)o1 (stereo not given),-0.4,-2,3,-2,-6,-25
CSc1ccccc1C(=O)NCc1ccc(C)cc1,-0.7,-11,0,-14,-9,-3
CC(C)C(O)(C#CCN1CCCC1)c1ccccc1 (stereo not given),1.5,8,3,-3,53,-37
O=[N+]([O-])c1ccc(/C=N/n2c(COc3ccccc3)n[nH]c2=S)cc1,-0.2,3,-6,-10,5,-2
Cc1ccc(C(C)C)cc1OCC(=O)NC1CCCCCCC1,0.2,-28,9,25,5,-11
Cc1csc(NC(=O)c2ccc(N3CCCC3=O)cc2)n1,-0.3,14,.,3,7,-13
COc1cc(/C=N/n2c(C3CCCCC3)n[nH]c2=S)cc(OC)c1O,0.4,?,-4,5,?,-1
CC(=O)C1=CCC(c2cccc(Cl)c2)N(S(=O)(=O)c2ccc(C)cc2)C1 (stereo not given),0.1,.,6,9,41,4
CCOC(CN=c1nc(N(C)C)ss1)OCC,0.3,.,0,8,0,-38
O=C(CCc1nc2ccccc2c(=O)[nH]1)OCC(=O)N1CCc2ccccc21,0.0,5,-10,2,5,-13
CCOc1ccc(OCC)c(NC(=O)C2CCCN(c3nc(C)cc(C)n3)C2)c1 (stereo not given),1.3,5,-7,-9,-2,-7
CN(CC(=O)NC1CCCCC1)S(=O)(=O)c1ccc2c(c1)c(=O)n(C)c(=O)n2C,-0.1,0,0,-2,-15,-9
N#CCCN(C(=O)CSc1nc2ccccc2c(=O)[nH]1)c1ccc(F)cc1,-0.5,.,6,-2,-14,-4
CCCCc1nn(-c2cc(Cl)ccc2OC)c2c1C(=O)CC(C)(C)C2,-0.5,-20,16,0,-13,-6
Nc1ncnc2c1ncn2[C@@H]1O[C@H](C(=O)N[C@H]2c3ccccc3C[C@H]2O)[C@@H](O)[C@H]1O,0.9,.,-22,29,28,-7
Cn1ccc2c(-c3cccnc3)cc3c(c21)C1CCC3C1 (stereo not given),-0.4,.,-22,-20,.,-12
COCCn1c(SCC(=O)Nc2cccc(OC)c2)nnc1-c1ccccc1,-0.3,-2,0,-4,-2,-5

# Filtered by structure, the compounds so far containing a cyano group (2)
canonical_smiles,TRPML1 agonist,TRPV1 PAM,CtBP-E1A blk,Six1-Eya2 inh,TRPML1 blocker,D2 potentiator
CCC1(C)Cc2c(C#N)c(N)n(N)c(=S)c2CO1 (stereo not given),1.4,-1,-7,-3,-8,-10
N#CCCN(C(=O)CSc1nc2ccccc2c(=O)[nH]1)c1ccc(F)cc1,-0.5,.,6,-2,-14,-4

# Going on with the list.
canonical_smiles,TRPML1 agonist,TRPV1 PAM,CtBP-E1A blk,Six1-Eya2 inh,TRPML1 blocker,D2 potentiator
COc1ccc(NC(=S)N2CCN(S(=O)(=O)c3ccc(F)cc3)CC2)cc1OC,-0.2,11,-3,3,-1,2
O=C(CCCNC(=O)c1ccc(Cl)cc1)Nc1ccc(Br)cc1,1.8,8,11,-1,-6,-17
CCC1C(=O)Nc2ccccc2N1C(=O)c1ccc(Cl)nc1 (stereo not given),-0.4,0,.,3,12,2
CCOC(=O)c1cc([N+](=O)[O-])sc1NC(=O)c1ccc(S(=O)(=O)N2CC3(C)CC2CC(C)(C)C3)cc1 (stereo not given),60*,-7,-3,-2,?,-11
O=S(=O)(c1ccccc1)N1CCN(c2cc(-c3ccccc3)nc3ncnn23)CC1,-0.1,2,8,2,6,7
CN(CC(=O)Nc1ccccc1Cl)CC(=O)Nc1cccc2ccccc12,1.9,.,-5,0,26,-1
O=C(c1ccc(SCc2cccc(Br)c2)c([N+](=O)[O-])c1)N1CCN(c2ccccn2)CC1,0.4,10,-20,-18,15,-4
CCc1nnc(NC(=O)CSc2nnc(Cc3cccn3C)n2CCOC)s1,0.1,-1,8,-5,31,-5
N[C@@H](Cc1ccc(O)cc1)c1nnc([C@H](CCC(=O)O)NC(=O)C2CCNCC2)o1,-0.2,23,0,0,17,4
COC(=O)C1CCN(C(=O)COC(=O)CC(NC(N)=O)c2ccc(Cl)cc2)CC1 (stereo not given),0.2,14,5,1,9,-17
O=C(CSc1ccc(Cl)cc1)NCc1ccco1,-0.1,4,1,-1,-17,0
O=C(Oc1cccc2ccccc12)c1ccccc1,.,.,49,55,.,4
CC(=O)c1ccc(NC(=O)C[n+]2cccc(C)c2)cc1,0.5,1,2,7,-1,-3
CCOC(=O)C1=C(C)NC2=C(C(=O)c3ccccc32)C1c1cccnc1 (stereo not given),-1.8,2,-9,-11,0,-19
COCc1cn(CC(=O)c2sc(NC(=O)C(C)(C)C)nc2C)nn1,-0.5,.,5,5,.,.
CSc1ccc(C(=O)C2CCCN(C(=O)c3ccc4c(c3)no[n+]4[O-])C2)cc1 (stereo not given),-0.8,18,.,-5,-3,3
CCOC(=O)C1CCN(C(=O)c2n[nH]c(=O)c3ccccc23)CC1,0.1,2,0,6,2,-11
O=C(NCC(c1cccnc1)N1CCOCC1)NC1CCCCC1 (stereo not given),0.6,-5,1,8,-3,3
COc1ccc(CN2CCCC(C(=O)N3CCCCC3)C2)cc1 (stereo not given),-0.6,-2,.,0,-10,-5
COc1ccc(S(=O)(=O)CC2(O)CCN(C(=O)CC(C)C)CC2)cc1,-0.2,-24,54,3,10,-8
CCOC(=O)N1CCC(n2c(SCC(=O)N3CCC(C)CC3)nc3ccccc3c2=O)CC1,1.6,-9,-10,0,22,-1
CSc1ncccc1C(=O)OCC(=O)N(CC(C)C)C1CCS(=O)(=O)C1 (stereo not given),-1.0,19,-1,5,-10,2
O=C(CCn1c(=O)oc2ccccc21)NCc1ccco1,0.5,-9,8,-1,4,-1
COCCN1CCN(C(=O)C2CCC(=O)N(Cc3ccccc3OC)C2)CC1 (stereo not given),0.3,0,10,5,-5,-17
COC(=O)C[C@H]1C[C@@H]2c3cc(NS(=O)(=O)c4ccc(OC)cc4)ccc3O[C@@H]2[C@H](CO)O1,-0.9,.,6,5,-8,3
CC1(C)Cc2cccc(OCC(=O)OCC(=O)Nc3ccccc3)c2O1,1.2,8,12,0,7,5
COc1ccc(N2CCN(C(=O)CN(c3cccc(Br)c3)S(C)(=O)=O)CC2)cc1,0.4,-4,1,-14,-1,-19
CN(C)CCC(=O)NCC1OCCc2ccccc21 (stereo not given),-0.1,0,8,9,17,-14
CCCCN1C(N)=NC[C@H]1Cc1ccc(O)cc1,-0.4,-46,1,-2,1,-9
CCOC(=O)Cc1csc(N(C)C)n1,2.3,3,7,-5,4,-8
CCn1c(Nc2ccccc2Cl)nc2ccccc21,0.4,0,0,5,-4,-12
COCCCNC(=O)CC(NS(=O)(=O)c1ccc(F)cc1)c1ccc(OC)cc1 (stereo not given),0.4,0,10,1,-9,10
CC(C)(C)CCN1CCC(CN2CCNC(=O)C2=O)CC1,-0.3,.,9,3,-10,-6
O=C(Nc1ccc2c(c1)OCO2)c1cccc(F)c1,-0.8,-12,3,-2,-7,-16
Cc1cccc(-n2ccnc2SCC(=O)Nc2nnc(C)s2)c1,-0.6,-1,0,-3,-3,-8
CCOc1ccc(CNC(=O)C2CCCN(S(C)(=O)=O)C2)cc1OC (stereo not given),-0.5,-1,9,7,4,-7
O=c1c(-c2ccc([N+](=O)[O-])cc2)coc2c(O)c(O)ccc12,-1.0,-16,-25,25,3,9
O=C(O)c1ccc(NC(=O)C2CCN(S(=O)(=O)c3ccc4c(c3)OCCO4)CC2)cc1,-0.1,.,1,3,12,-5

# Compound activity (PubChem)
